High-throughput results deposited in PubChem by Southern Research Institute.
Mtb H37Rv: Mycobacterium tuberculosis H37Rv growth inhibition, cell based, confirmatory dose response (AID 1949); M. tuberculosis H37Rv growth inhibition; most inactive calls were filed without a number and no value below 0 was filed; inhibition, % at 10 µg/mL, or IC50 in µg/mL where a hit was titrated; hit rate 1.6% among 100,000;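 active = confirmed in a dose series; inconclusive = about 50% or more but not retested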;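 also: bacteria grown 7 days with compound before Alamar blue readout; 0% = untreated bacteria and 100% = reference antibiotic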
Starred values were filed as active, the others as inactive; i = inactive; ? = inconclusive.

smiles	Mtb H37Rv
Cc1cc(C)cc(NC(=O)CC2NCCNC2=O)c1 (stereo not given)	i
CCc1c(-c2ccccc2)[n+](=O)c(-c2cc(OC)ccc2OC)c(C)n1[O-]	i
CC(CC(=O)O)CC(=O)Nc1ccc(C(=O)O)cc1 (stereo not given)	2.5%
Cc1ccnc(NC(=O)C2CC(=O)N(c3ccc(Br)cc3)C2)c1 (stereo not given)	i
CCOc1cc(CNc2ccc(O)cc2)cc(Cl)c1OCc1cccs1	1.5%
COc1ccc(NC(=O)C2CCN(S(=O)(=O)c3ccc(F)cc3)CC2)cc1	i
COc1ccccc1-c1cc(C(=O)N2CCN(c3ccccn3)CC2)c2ccccc2n1	i
Nc1c(C(=O)Nc2ccc(F)c(Cl)c2)sc2nc3c(c(C(F)(F)F)c12)CCC3	i
Cc1cc(NC(=O)c2ccc(N(Cc3ccccc3C)S(C)(=O)=O)cc2)ccc1Br	i
Cc1cnc(NC(=O)CSc2nnnn2-c2ccccc2)s1	i
CCN1CCN(Cc2ccc(NC(=O)Nc3cc(F)ccc3F)cc2)CC1	i
O=C(NC(=S)Nc1ccc2c3c(cccc13)CC2)c1cc(I)ccc1Cl	i
CC1CCN(CCOc2ccccc2-c2ccccc2)CC1	i
Cc1ccc(CNC(=O)CN(c2cc(Cl)cc(Cl)c2)S(C)(=O)=O)cc1	i
Cc1c(Cl)cccc1NC(=O)CC1NCCNC1=O (stereo not given)	i
O=C(CN(c1ccc(I)cc1)S(=O)(=O)c1ccccc1)NCc1ccco1	i
O=C(NN1CCOCC1)c1cc(-c2ccc(Cl)s2)nc2ccccc12	0.7%
O=C(Nc1ncc(Cc2cccc(Cl)c2)s1)c1ccc(Cl)cc1	21.2%
Cc1ccnc(SCC(=O)NC2CCCCC2)n1	i
COCCSc1ccccc1C(=O)NCc1ccccc1OC	i
COc1cccc(OC)c1OCC(O)CN1CCc2ccccc2C1 (stereo not given)	i
Cn1nnc2cc(NC(=O)N3CCN(c4ccccc4)CC3)ccc21	i
CSc1cccc(NC(=O)C2CCN(C(=O)c3ccc(Cl)cc3Cl)CC2)c1	i
COc1ccc(C2CC(c3c(F)cccc3Cl)n3nc(N)nc3N2)cc1 (stereo not given)	i
CCOC(=O)c1ccc(NC(=O)COc2ccc(C=O)cc2OCC)cc1	i
CCOC(=O)c1c(NC(=O)CSc2nnc(C)s2)sc2c1CCN(C)C2	i
Cc1ccc(NC(=O)c2cc(S(=O)(=O)Nc3ccc(C)cc3)cs2)cc1	i
Cc1cccc(NC(=O)C2CC(=O)N(c3ccc(F)cc3)C2)c1C (stereo not given)	i
COc1ccc(CCNC(=O)c2cccnc2)cc1	0.6%
COc1ccc(CCNC(=O)CSc2nc3ccccc3o2)cc1OC	i
c1ccc(C2=NN3COc4ccccc4C3C2)cc1 (stereo not given)	i
CC(=O)NC(Cc1c[nH]c2ccccc12)C(=O)NCc1ccccc1F (stereo not given)	i
COc1ccc(OC)c(NC(=S)Nc2ccccn2)c1	i
CCC(CC)C(=O)Nc1cccc(C(=O)NCC2CCCO2)c1 (stereo not given)	i
Cc1cc(C)cc(N/C=C(/C#N)c2nc(-c3ccc(F)cc3)cs2)c1	i
O=C(CSc1nnc(-c2ccccc2)o1)N1CCc2ccccc2C1	9.27µg/mL*
COc1ccc(NC(=O)c2ccc(N(C)S(C)(=O)=O)cc2)cc1OC	i
COC(=O)CSc1nnnn1-c1ccc(C)cc1	i
O=C(c1cc2nc(-c3ccc(Br)cc3)cc(C(F)(F)F)n2n1)N1CCCCC1	i
COc1ccc2nc(NC(=O)CN3C(=O)c4ccccc4C3=O)sc2c1	i
O=Cc1ccc(OCc2ccccc2F)c(Cl)c1	i
CC(C)OCCCn1c(=S)[nH]c2ccccc2c1=O	i
CCCCOc1ccccc1-c1nc(SCC(=O)O)n[nH]1	i
Cn1c(=O)c2c([nH]c(=S)n2Cc2c(Cl)cccc2Cl)n(C)c1=O	i
CC(=O)Oc1ccc2c(=O)c(-c3ccccc3)c(C)oc2c1OC(C)=O	0.5%
COc1ccc(NC(=O)c2cc(-c3cccs3)nc3ccccc23)c(OC)c1	i
COc1ccc(Cc2nc3c4cnn(-c5ccc(C)cc5)c4ncn3n2)cc1	i
COc1ccccc1CNC(=O)Nc1cc(C)ccc1OC	i
CC(C)c1ccc(N2C(=O)CC(Sc3nc(-c4ccccc4)c4ccccc4n3)C2=O)cc1 (stereo not given)	i
CCn1c(COc2ccc(C(C)(C)C)cc2)nc2ccccc21	?
O=C(NC1CCCC1)C1CCN(C(=O)c2ccc(F)cc2)CC1	i
C=CCn1c(SCC(=O)Nc2ccc(S(N)(=O)=O)cc2)nc2sc3c(c2c1=O)CCC3	i
O=C(CSc1ccc(Cl)cc1)Nc1ccc(I)cc1Cl	1.1%
Cc1ccc(NC(=O)CNS(=O)(=O)c2ccccc2)c(C)c1	i
COc1ccc(OC)c(NC(=S)NNC(=O)CCCOc2ccc(Cl)cc2Cl)c1	i
CCC1CCC(c2nnc(-c3ccc(Br)cc3)o2)CC1 (stereo not given)	i
COc1ccc(Br)cc1CNCCO	1.3%
COC(=O)c1cc(Cl)c(N)cc1OC	i
COc1ccc(Br)cc1C(=O)NC(=S)Nc1cccc(C(=O)O)c1	i
Cc1ccc(/C(N)=N/OC(=O)c2cc(-c3ccccc3)nc3ccccc23)cc1	i

Following part.
smiles	Mtb H37Rv
Cc1cc(S(=O)(=O)NCc2ccccc2)ccc1OCC(=O)NCC1CCCO1 (stereo not given)	1.5%
CCSc1ccccc1C(=O)Nc1ccc(S(N)(=O)=O)cc1	i
CCc1ccc(-c2cc(C(=O)Nn3cnnc3)c3ccccc3n2)cc1	i
S=c1nc(N2CCOCC2)[nH]c(N2CCOCC2)n1	i
Cc1c(Nc2nc(-c3cccc([N+](=O)[O-])c3)cs2)c(=O)n(-c2ccccc2)n1C	i
COC(=O)/C(C#N)=C/c1c(OC)[nH]c2ccccc12	1.7%
CCOc1ccc(N2CC(c3nc4ccccc4n3C)CC2=O)cc1 (stereo not given)	i
O=C(Nc1ccc(C(F)(F)F)cc1)C(=O)N1CCCCC1	4.0%
NS(=O)(=O)c1ccc(NC(=S)NC(=O)c2ccc(-c3ccccc3)cc2)cc1	9.4%
CS(=O)(=O)N(CC(=O)Nc1ccccc1Br)c1ccc(OCc2ccccc2)cc1	4.6%
C1CSC2(N1)C1CC3CC2CC(C1)C31NCCS1 (stereo not given)	i
CC(Sc1ccc(Cl)cc1)C(=O)Nc1cccc([N+](=O)[O-])c1 (stereo not given)	i
Cc1cccc(NC(=O)COc2ccc(C=O)cc2Br)c1	38.8%
COc1ccc(CNC(=O)c2ccc(C(C)C)cc2)cc1	3.3%
CC(C)c1nnc(NS(=O)(=O)c2ccc(Cl)cc2)s1	i
O=c1oc2cc(OCc3ccccc3Br)ccc2c2c1CCC2	i
OC(C#CCN1CCOCC1)(c1ccccc1)c1ccccc1	1.4%
O=S(=O)(Nc1ccccc1)c1ccc(Br)s1	2.6%
COc1cc(SC)ccc1C(=O)N1CCN(c2ccccc2)CC1	4.7%
Cc1ccc(-n2c(SCC(=O)NCc3ccccc3)nnc2-c2ccncc2)cc1C	i
O=C(CSc1nc2ccccc2c(=O)[nH]1)Nc1ccc(Br)cc1	i
COc1cc2ccccc2cc1C(=O)N1CCN(C23CC4CC(CC(C4)C2)C3)CC1	i
O=C(CNC(=O)c1ccco1)OCc1c(Cl)cccc1Cl	i
O=C(NC(Nc1cccc([N+](=O)[O-])c1)C(Cl)(Cl)Cl)c1cccc(I)c1 (stereo not given)	11.7µg/mL*
Cc1ccc(C)c(OCC(=O)Nc2cc(C(=O)O)cc(C(=O)O)c2)c1	i
N#Cc1ccc(C(=O)Nc2cc(C(F)(F)F)ccc2Cl)c(F)c1	i
CC(=O)Nc1ccc(NC(=O)CN(C2CCCCC2)S(=O)(=O)c2ccc(Br)cc2)cc1	i
COc1cccc(NC(=O)c2ccc(N3CCC(C)CC3)c([N+](=O)[O-])c2)c1	i
CCOC(=O)c1ccc(NC(=S)NNC(=O)c2cc(Br)ccc2Cl)cc1	1.2%
C=CCNCCOc1ccccc1-c1ccccc1	5.1%

6 structures out of the list, ordered by count of non-hydrogen atoms, low to high:
smiles	Mtb H37Rv
O=S(=O)(Nc1ccccc1)c1ccc(Br)s1	2.6%
C=CCNCCOc1ccccc1-c1ccccc1	5.1%
O=C(CNC(=O)c1ccco1)OCc1c(Cl)cccc1Cl	i
N#Cc1ccc(C(=O)Nc2cc(C(F)(F)F)ccc2Cl)c(F)c1	i
CCOC(=O)c1ccc(NC(=S)NNC(=O)c2cc(Br)ccc2Cl)cc1	1.2%
COc1cccc(NC(=O)c2ccc(N3CCC(C)CC3)c([N+](=O)[O-])c2)c1	i

Further structures follow:
smiles	Mtb H37Rv
O=C(Nc1nccs1)c1ccc(COc2c(F)c(F)cc(F)c2F)cc1	?
Cc1c(NC(=O)C2(c3ccccc3)CCOCC2)c(=O)n(-c2ccccc2)n1C	i
OC(COc1ccc(-c2ccccc2)cc1)CN1CCCCC1 (stereo not given)	i
CCc1ccccc1N1CCN(S(=O)(=O)c2cc(C)c(C)cc2OC)CC1	i
CC(C)(C)NS(=O)(=O)c1ccc(NC(=O)COc2ccc(Br)cc2Cl)cc1	38.0%
CCc1cccc(OCCOc2ccc(Cl)c3cccnc23)c1	15.2%
CCOc1cccc(OCCCOc2ccc(CC)cc2)c1	8.4%
CC(=O)c1cc(Cl)ccc1OC(=O)c1ccco1	i
COc1ccc(CSc2nnnn2-c2ccc(C(=O)O)cc2)cc1	i
COc1cc(Br)cc(/C=C/c2ccc3ccccc3n2)c1OC(C)=O	i
COc1ccc(OCCCN2CCN(c3ccccc3OC)CC2)cc1	i
CCOC(=O)Cc1ccc(-n2c(C)ccc2C)cc1	7.8%
COC(=O)c1ccccc1NC(=O)CNC(=O)c1ccc(OC)cc1	i
O=C(Nc1cccc(F)c1)C(Cl)(Cl)Cl	i
CCc1ccc(NC2=NC(C(=O)Nc3ccccc3)CC(=O)N2)cc1 (stereo not given)	i
Nc1nonc1-c1nc2ccccc2n1CC(=O)Nc1cccc(Br)c1	i
CC1CC(C)CN(CCCCOc2ccccc2[N+](=O)[O-])C1 (stereo not given)	i
O=C(NC(=S)Nc1ccc(I)cc1C(F)(F)F)c1ccco1	11.2%
c1cc2c(cc1-n1nnnc1SCSc1nnnn1-c1ccc3c(c1)OCO3)OCO2	4.9%
COc1ccccc1CC(=O)NCC1COc2ccccc2O1 (stereo not given)	i
O=C(NCc1cccs1)c1cccc(Br)c1	i
Cc1ccc(NC(=O)C(=O)NCCCc2ccccc2)cc1Cl	i
Fc1cc(Cl)ccc1NC(=S)N1CCN(c2cccc(Cl)c2)CC1	i
COc1ccccc1NC(=O)c1ccccc1NC(=O)c1ccco1	0.9%
CCOc1ccc(Br)cc1S(=O)(=O)NCc1ccccc1	i
COc1ccc(-c2cc(=O)c3cc(C)ccc3o2)cc1OC	42.4%
Cc1ccc(Cl)cc1NC(=O)c1sc2ccccc2c1Cl	i
COc1ccc(NC(=O)CCn2cnc3ccccc3c2=O)cc1OC	i
Oc1ccc(Br)cc1CNc1nccs1	i
O=C(CCC1CCCCC1)Nc1ccccc1F	i
O=C1NN(c2ccccc2)C(=O)C2C3c4ccccc4C(c4ccccc43)C12 (stereo not given)	i
O=[N+]([O-])c1ccc(CSCc2ccccc2)cc1	i
O=C(O)CCN1C(=O)c2ccc(NC(=O)c3ccco3)cc2C1=O	i
CC1(C)Cc2c(sc3[nH]c(=S)n(-c4cccc(Cl)c4)c(=O)c23)CO1	i
COc1ccc(C(=O)CC2(O)C(=O)N(C)c3ccccc32)c(OC)c1 (stereo not given)	i
O=C(COc1ccccc1Cl)Nc1ccc(S(=O)(=O)N2CCCCC2)cc1	i
COc1ccc(Cl)cc1N(CC(=O)Nc1cccc(C)c1)S(=O)(=O)c1ccccc1	i
COCCCNC(=O)Nc1ccc(Cl)c(Cl)c1	i
Cc1ccc(C(=O)N2CCN(c3ccccc3F)CC2)o1	0.2%
Cc1ccccc1C1CC(=O)NC(SCc2ccc(Cl)cc2)=C1C#N (stereo not given)	4.5%
CCc1ccc(CCC(=O)Nc2nnc(C)s2)o1	i
Cc1ccc(C(=O)N2CCN(c3ccc(NC(=S)NC(=O)c4cccs4)cc3)CC2)cc1	?
O=C(Oc1c(Cl)cc(Cl)c2cccnc12)N1CCCC1	i
CC1CCCC(C)N1C(=O)CN(C)S(=O)(=O)c1ccc(Cl)cc1 (stereo not given)	i
c1ccc2c(CNn3cnnc3)cccc2c1	i
COc1cc(C2C(C(=O)N3CCOCC3)=C(C)NC3=C2C(=O)CCC3)ccc1OCc1ccccc1 (stereo not given)	i
O=C(Nc1ccccc1Oc1ccccc1)c1ccc(Br)cc1	0.3%
CCOc1ccc(NC(=O)c2ccc(-c3cccc(C(F)(F)F)c3)o2)cc1	i
CC(C)(C)c1ccc(Cn2cnc([N+](=O)[O-])n2)cc1	<0.1µg/mL*
CCN1CCN(C(=O)Nc2cccc3ccccc23)CC1	i
CCN(c1ccccc1)S(=O)(=O)c1ccc(Cl)s1	i
C=CCNS(=O)(=O)c1cc(OC)ccc1OC	i
N#C/C(=C/c1ccccc1Br)c1ccc(C(=O)O)cc1	0.1%

An excerpt of these results, as labelled records:
COc1cccc(NC(=O)c2ccc(N3CCC(C)CC3)c([N+](=O)[O-])c2)c1
  Mtb H37Rv: i
CCOC(=O)c1ccc(NC(=S)NNC(=O)c2cc(Br)ccc2Cl)cc1
  Mtb H37Rv: 1.2%

These rows are one share of the data; rates above refer to the full screens.
